Source: PubChem
GIV Gai3 FP = GIV-Galpha-i interaction inhibition; Galpha-i3/FITC-GIV peptide fluorescence polarization, 90 min; stronger effect = lower value; scaled: aluminum fluoride 0%, vehicle 100%; percent of control (FP), % (no concentration beside the values); hit rate 0.42% among 210,000; AID 1224905;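 active = replicate mean at 85% of control or lower, very high polarization wells dropped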;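 also: wells of about 15 µL received 100 nL stock; the first replicate is given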
Target sequence (P08753 whole entry, looked up): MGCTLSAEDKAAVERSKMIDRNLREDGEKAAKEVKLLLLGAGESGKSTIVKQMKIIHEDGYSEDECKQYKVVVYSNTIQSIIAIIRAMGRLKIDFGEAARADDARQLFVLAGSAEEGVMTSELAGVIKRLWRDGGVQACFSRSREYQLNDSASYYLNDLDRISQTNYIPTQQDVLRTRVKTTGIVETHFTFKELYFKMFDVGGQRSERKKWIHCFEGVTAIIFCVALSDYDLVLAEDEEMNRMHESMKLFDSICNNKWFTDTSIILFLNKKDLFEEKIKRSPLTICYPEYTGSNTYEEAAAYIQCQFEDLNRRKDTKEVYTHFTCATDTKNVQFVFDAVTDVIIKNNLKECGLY
HCMV NEC inh = cytomegalovirus nuclear egress complex inhibition. inhibition, % (test concentration not listed). hit rate 0.15% among 190,000. HTRF UL50-UL53 interaction, normalized percent inhibition;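 active = both replicates at 50% or more, plus weaker picks with an unusually low signal ratio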;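 also: stock transfer was 100 nL into about 20 µL; 0% = negative control wells and 100% = wells with untagged competitor protein; inactives centre near -12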
Sa growth inh = blocks Staphylococcus aureus growth | S. aureus RN4220 growth, OD600, 20 h, 42 °C; stronger effect = lower value | relative growth, % (no concentration beside the values) | hit rate 0.53% among 170,000 | AID 720641;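 active = growth at 42 °C up to 50% and 20 or more points under that at 30 °C, or under 10% at both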;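 also: 300 nL library stock went into each well; scaled to the means of positive and negative controls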
Sa growth inh second temp = also measured in Sa growth inh; calls as there; relative growth, %; measured here: growth at 30 °C;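 optical density after 20 h as mean of two plates; 100% = untreated growth and lower means inhibition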
Numbers without * were called inactive; . = no result given; & = joins results of further samples.

SMILES	GIV Gai3 FP	HCMV NEC inh	Sa growth inh	Sa growth inh second temp
COc1ccc2nc(N(Cc3cccnc3)C(=O)c3ccc(Cl)cc3)sc2c1	102.5&106.2	.	94.8	85.1
CCOc1ccc(C(=O)NCCO)cc1	106.0	-13.6	119.8	101.7
COc1ccccc1-c1cc(-c2ccccc2)nc(SCC(N)=O)c1C#N	159.8	6.4	.	.
Cc1cccc(Nc2nn3c(=O)c4cc5c(cc4nc3s2)OCO5)c1	99.8	.	97.0	100.9
COc1cc(Nc2ncc3c(n2)CCN(S(=O)(=O)c2ccc4c(c2)CCCC4)C3)cc(OC)c1	106.6	-9.3	.	.
Cc1cc(CC(=O)NN)n[nH]1	.	-18.7	100.0	88.4
O=S1(=O)CCC(S(=O)(=O)NCc2ccco2)C1 (stereo not drawn)	103.5	1.2	97.3	94.6
O=C(O)c1ccc(Br)c(C(=O)O)c1	.	-4.6	127.4	88.8
O=C(Nc1ccc(F)cc1)c1ccc(-n2cnnc2)cc1	102.8	.	108.6	101.8
Cc1ccc(C)c(Cn2c(=O)n(CC3CCC(C(=O)N4CCOCC4)CC3)c(=O)c3sccc32)c1 (stereo not drawn)	97.2	.	101.3	87.8
CN1CCC(N(C)C(=O)Nc2c[nH]c3ccccc23)CC1	105.9	-150.6	3.2*	6.3*
CCN1CCN(c2cc(C)c3cc(NC(=S)NC4CCCC4)ccc3n2)CC1	106.2	1.5	99.6	82.8
CCN1CCN(c2nc(C)c3c(n2)CC(c2ccco2)CC3=O)CC1 (stereo not drawn)	104.8	-21.7	93.7	81.3
Cc1nn(Cc2cccc(C(N)=O)c2)c(C)c1Br	100.1	2.2	111.5	93.8
O=C(Nc1cc(Cl)ccc1O)c1noc2c1CCCCC2	110.4	-21.5	.	.
CSc1cccc(Nc2cc(C(=O)NCCN3CCOCC3)c3ccccc3n2)c1	97.9	-4.1	104.3	95.8
CCn1c(CCC(=O)NC(C#N)c2ccc(F)cc2)nc2cc(S(=O)(=O)N(C)C)ccc21 (stereo not drawn)	.	-4.1	109.7	96.1
O=C(Nc1ccc2c(c1)OCO2)c1ccc(Nc2ccnc(-c3cccc(F)c3)n2)cc1	106.3	-11.8	.	.
CC(=O)NC12CC3CC(C)(C1)CC(NC(C)=O)(C3)C2	102.0	-15.9	78.0	78.0
COC(=O)c1ccc(NC(=O)Cn2cnc3c2c(=O)n(C)c(=O)n3C)cc1	100.3	-37.0	94.3	89.1
COc1ccc(CN(C)S(=O)(=O)c2nnc(NC(=O)C(C)C)s2)cc1OC	109.1	.	108.1	88.3
Cc1ccn2cc(CSc3ccccc3N)nc2c1	102.7	.	89.2	90.4
CC(=O)NC1CCCCc2sccc21 (stereo not drawn)	.	-2.4	94.8	90.5
CC(C)(C)OC(=O)N1CCC(c2c(C(=O)N3CCN(c4ncccn4)CC3)cnn2-c2ccc(F)cc2)CC1	107.7	.	78.6	92.5
CCOc1ccc(C(=O)N(Cc2cc(OC)c(OC)c(OC)c2)c2ccccn2)cc1	100.8	-15.5	99.7	86.9

Remaining list, next part
SMILES	GIV Gai3 FP	HCMV NEC inh	Sa growth inh	Sa growth inh second temp
COc1cc(C(=O)Nc2nsc(-c3ccccc3)n2)cc(OC)c1OC	106.3	-13.6	110.1	77.3
CC(=O)c1cc(-c2ccc(F)cc2)n(CC(=O)NC(C)c2ccccc2)c1C (stereo not drawn)	98.3	.	101.7	89.5
CCOC(=O)c1c(C)n(-c2ccc(OC)cc2)c2ccc(OC(=O)COc3ccccc3)cc12	106.9	-28.5	92.9	85.0
Cc1nc(S(=O)(=O)N2CCN(c3cccc(Cl)c3)CC2)cn1C	101.4	.	117.9	102.9
O=C(CNS(=O)(=O)c1cccc(C(F)(F)F)c1)NC1CCCCCC1	.	8.8	94.8	99.1
C=C(C)C1CCC(C)=C1COC(=O)c1ccccc1 (stereo not drawn)	103.1	-12.9	86.4	74.4
Cc1ccc2onc(CNC(=O)N3CCc4ccccc43)c2c1	107.4	-24.0	93.8	95.7
Nc1nc(CN2CCCCC2)cs1	104.9	-23.0	118.3	94.2
O=S(=O)(c1ccccc1)N1CCCC(c2nc(-c3cccs3)no2)C1 (stereo not drawn)	102.2	-8.7	88.9	73.7
Cc1ccc(S(=O)(=O)c2cn(Cc3cccc(C)c3)c3cc4c(cc3c2=O)OCO4)cc1	110.0	14.8	81.5	93.8
COc1ccccc1OCC(=O)Nc1ccc(S(=O)(=O)N2CCN(C)CC2)cc1	103.4	4.0	106.3	71.6
CCOC(=O)c1cncc(C#CCOC(=O)Nc2ccccc2)c1	103.5	-5.2	109.9	84.7
O=c1cc(CN2CCN(c3ccc(F)cc3)CC2)nc2nc(-c3ccc(F)cc3)[nH]n12	107.6	-21.3	.	.
CCC(C)NC(=O)CSc1nc2cc(-c3ccccc3)[nH]c2c(=O)n1Cc1ccccc1 (stereo not drawn)	107.2	-6.9	.	.
Cc1sc2c(c1C)C1=NS(=O)(=O)CCN1C=N2	.	-22.8	84.1	84.1
Cc1ccc(-c2nc3ccccn3c2Nc2ccc3c(c2)OCO3)o1	96.6	-15.5	68.0	43.5
COc1ccc(CCNC(=O)c2ccc3c(c2)N(Cc2cc(C)ccc2C)C(=O)c2ccccc2S3=O)cc1OC (stereo not drawn)	96.4	-16.6	103.3	89.2
CCN1C(=O)N(CC)C2NC(=S)NNC21 (stereo not drawn)	103.9	-18.5	94.8	94.8
COc1cc(Cl)c(NS(=O)(=O)c2ccc3[nH]c(=O)ccc3c2)c(OC)c1	99.2	.	109.3	88.6
COc1ccc(-n2nc(N3CCN(C(=O)c4ccc(Cl)cc4)CC3)ccc2=O)cc1	107.2	-37.6	.	.
CN(C)c1ccc(C2(O)C(=O)c3ccccc3C2=O)cc1	.	-55.3	110.8	82.8
CC(C)(C)c1csc(-c2sccc2COc2ccc(Cl)cc2)n1	103.3	-47.5	95.5	88.9
CCOC(=O)C1=C(CSc2nnc(-c3cccs3)n2-c2ccccc2)NC(=O)NC1C (stereo not drawn)	.	-4.8	101.7	103.5
COc1ccc(CCNC(=O)c2cn(C)c(=O)c3cc(OC)c(OC)cc23)cc1OC	105.7	8.1	102.0	99.8
Cc1ccc(Nc2nnc(SCC(=O)N(C)C)s2)cc1	.	-23.7	81.7	92.1

Further compounds follow:
SMILES	GIV Gai3 FP	HCMV NEC inh	Sa growth inh	Sa growth inh second temp
CCN(CC)c1c(S(=O)(=O)c2ccc(C)cc2)cnc2ccccc12	103.7	.	69.0	59.7
Cc1sc2ncn3ncnc3c2c1C	105.6	-8.4	98.9	90.3
N#C/C=C/c1ccc(C(=O)O)cc1	.	-42.1	76.0	82.2
Cc1nn2c3c(sc2nc1=O)C(=O)N(c1ccc(F)c(Cl)c1)C3=O	104.6	-29.7	93.9	82.0
COc1ccc2nc(Cl)c(CN(C(=O)c3ccco3)C3CCCC3)cc2c1	101.4	15.2	96.9	107.3
Cc1c(C)c(NC(=O)/C=C/C(=O)O)c(C)c(C)c1NC(=O)/C=C/C(=O)O	110.3	-16.8	106.6	90.5
CC(=O)Nc1ccc(S(=O)(=O)N(C)c2ccc(O)c(N=Nc3cccc4c(=O)[nH][nH]c(=O)c34)c2)cc1	.	4.8	85.2	94.1
CCOc1ccc2c(c1)sc(=N)n2Cc1ccc(Cl)cc1	.	-35.2	130.7	67.7
CN(C(=O)CN1C(=O)CCSc2ccc(S(=O)(=O)N3CCCC3)cc21)c1ccccc1	103.5	.	84.1	85.9
COc1ccc(NC(=O)c2cnc[nH]2)cc1	103.1	8.5	103.3	101.7
COc1ccc(-c2nnc3[nH]c(=O)cc(C)n23)cc1	.	-3.3	101.1	100.0
CCOc1ccc2nc(SCC(=O)Nc3cccc(SC)c3)sc2c1	104.7	6.0	.	.
Cc1ccc(-c2nn3c(=O)cc(CN4CCN(C(=O)Nc5cc(Cl)ccc5C)CC4)nc3s2)cc1	110.8&105.3	.	95.5	96.6
CC(C)CNc1ncnc2c1c(-c1ccccc1)cn2-c1ccccc1	103.6	.	114.7	84.4
Cc1csc(=O)n1CC(=O)OCC(=O)N(C)c1c(N)n(Cc2ccccc2)c(=O)[nH]c1=O	.	-29.1	87.9	82.5
CSc1ccc(CC2C(=O)Nc3ccccc32)cc1 (stereo not drawn)	100.2	-10.7	106.2	91.9
O=C(O)c1ccc(CN2C(=O)CSc3ccccc32)o1	102.2	-13.3	99.6	94.8
CC1Cc2ccccc2N1C(=O)CSc1nnc(-c2ccccc2Cl)o1 (stereo not drawn)	96.0	-14.8	103.7	76.2
CCOC(=O)C1CCN(C(=O)CN2C(=O)c3ccccc3C2=O)CC1	99.6	-43.2	89.9	94.5
O=C(NCc1ccc2c(c1)CCN2C(=O)c1ccccc1)Nc1cccc(C(F)(F)F)c1	105.9	.	97.5	98.0
COc1ccc(OC)c(CCNC(=O)c2csc3c2CCCCC3)c1	99.7	-11.6	89.9	91.2
Cc1ccc2nsnc2c1NC(=O)c1ccc2c(c1)OCCO2	107.6	-80.4	.	.
NC(C(=O)O)c1ccsc1 (stereo not drawn)	97.9	-14.5	.	.
O=c1nc(Nc2ccc(OC(F)(F)F)cc2)oc2ccccc12	103.1	-37.6	102.5	87.4
CCS(=O)(=O)N1CCc2cc(C(=O)N3CCN(c4ccccc4)CC3)ccc21	104.6&104.8	13.4&-19.3	99.8	89.3

Another view of part of the listing above:
Molecule | GIV Gai3 FP | HCMV NEC inh | Sa growth inh | Sa growth inh second temp
Cc1sc2ncn3ncnc3c2c1C | 105.6 | -8.4 | 98.9 | 90.3
N#C/C=C/c1ccc(C(=O)O)cc1 | . | -42.1 | 76.0 | 82.2
Cc1nn2c3c(sc2nc1=O)C(=O)N(c1ccc(F)c(Cl)c1)C3=O | 104.6 | -29.7 | 93.9 | 82.0
COc1ccc2nc(Cl)c(CN(C(=O)c3ccco3)C3CCCC3)cc2c1 | 101.4 | 15.2 | 96.9 | 107.3
Cc1c(C)c(NC(=O)/C=C/C(=O)O)c(C)c(C)c1NC(=O)/C=C/C(=O)O | 110.3 | -16.8 | 106.6 | 90.5
CC(=O)Nc1ccc(S(=O)(=O)N(C)c2ccc(O)c(N=Nc3cccc4c(=O)[nH][nH]c(=O)c34)c2)cc1 | . | 4.8 | 85.2 | 94.1
CCOc1ccc2c(c1)sc(=N)n2Cc1ccc(Cl)cc1 | . | -35.2 | 130.7 | 67.7
CN(C(=O)CN1C(=O)CCSc2ccc(S(=O)(=O)N3CCCC3)cc21)c1ccccc1 | 103.5 | . | 84.1 | 85.9
COc1ccc(NC(=O)c2cnc[nH]2)cc1 | 103.1 | 8.5 | 103.3 | 101.7
COc1ccc(-c2nnc3[nH]c(=O)cc(C)n23)cc1 | . | -3.3 | 101.1 | 100.0
CCOc1ccc2nc(SCC(=O)Nc3cccc(SC)c3)sc2c1 | 104.7 | 6.0 | . | .
Cc1ccc(-c2nn3c(=O)cc(CN4CCN(C(=O)Nc5cc(Cl)ccc5C)CC4)nc3s2)cc1 | 110.8&105.3 | . | 95.5 | 96.6
CC(C)CNc1ncnc2c1c(-c1ccccc1)cn2-c1ccccc1 | 103.6 | . | 114.7 | 84.4
Cc1csc(=O)n1CC(=O)OCC(=O)N(C)c1c(N)n(Cc2ccccc2)c(=O)[nH]c1=O | . | -29.1 | 87.9 | 82.5
CSc1ccc(CC2C(=O)Nc3ccccc32)cc1 (stereo not drawn) | 100.2 | -10.7 | 106.2 | 91.9
O=C(O)c1ccc(CN2C(=O)CSc3ccccc32)o1 | 102.2 | -13.3 | 99.6 | 94.8
CC1Cc2ccccc2N1C(=O)CSc1nnc(-c2ccccc2Cl)o1 (stereo not drawn) | 96.0 | -14.8 | 103.7 | 76.2
CCOC(=O)C1CCN(C(=O)CN2C(=O)c3ccccc3C2=O)CC1 | 99.6 | -43.2 | 89.9 | 94.5
O=C(NCc1ccc2c(c1)CCN2C(=O)c1ccccc1)Nc1cccc(C(F)(F)F)c1 | 105.9 | . | 97.5 | 98.0
COc1ccc(OC)c(CCNC(=O)c2csc3c2CCCCC3)c1 | 99.7 | -11.6 | 89.9 | 91.2
Cc1ccc2nsnc2c1NC(=O)c1ccc2c(c1)OCCO2 | 107.6 | -80.4 | . | .
NC(C(=O)O)c1ccsc1 (stereo not drawn) | 97.9 | -14.5 | . | .

More compounds.
SMILES	GIV Gai3 FP	HCMV NEC inh	Sa growth inh	Sa growth inh second temp
CCOc1ccc(-n2c(=O)c3c4c(sc3n(CC(=O)NC(C)CC)c2=O)CCCCC4)cc1 (stereo not drawn)	106.2	-0.3	88.5	89.8
CCCSc1nc2c([nH]c3ccccc32)c(=O)n1C	105.5	.	116.5	86.3
COc1ccc(C(=O)Nc2nnc(CCS(=O)(=O)c3ccc(Cl)cc3)s2)cc1OC	111.0	3.1	.	.
CCOc1ccc(Nc2nc3ccccc3n3c(CC)nnc23)cc1	106.1	-9.0	99.5	92.2
CCc1nn2c(=O)cc(COc3ccc(/C=C4/C(=N)N5C=CSC5=NC4=O)cc3OC)nc2s1	100.9	.	89.0	74.7
COc1ccc2nc3oc(C(=O)N4CCCCC4)cc3cc2c1	98.8	-15.9	.	.
O=C1Nc2ccc(S(=O)(=O)Nc3ccccc3)c3cccc1c23	103.6	-72.6	92.3	74.8
NS(=O)(=O)/C=C/c1ccc(Cl)cc1	.	-16.4	92.0	88.4
COc1ccc(NC(=O)Cn2nc3c(Sc4ccccc4)nc4ccccc4n3c2=O)cc1OC	105.7	-20.6	.	.
COCCCNC(=O)c1sc2nc(C)c(C(=O)Nc3ccc(C)cc3C)c(-c3ccc(Cl)cc3)c2c1N	100.6	12.9	93.9	94.8
O=C(c1n[nH]c(=O)c2ccccc12)N1CCN(C2c3ccccc3-c3ccccc32)CC1	.	-13.6	95.8	100.0
Cc1ccc2cc(C)c(Nc3ccc4c(c3)OCO4)nc2c1	.	1.7	117.7	90.3
